B2AR ag: beta2AR agonists driving receptor internalization, primary screen, cell-based, FAP fluorogen, flow cytometry; Am2.2-beta2AR cells; reference of the scale not given here; response, % (test concentration not listed); Beta-2 adrenergic receptor (Homo sapiens), P07550; AID 504454, 2011; 0.43% of 340,000 active;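 active = response above a set limit, near 3 SD of response in nonfluorescent compounds, cut at about 42% in these data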;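 note: stock transfer was 100 nL into about 11 µL; a reference agonist was the positive control; negative values mostly stem from fluorescent compounds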
Target sequence (P07550 whole entry, looked up): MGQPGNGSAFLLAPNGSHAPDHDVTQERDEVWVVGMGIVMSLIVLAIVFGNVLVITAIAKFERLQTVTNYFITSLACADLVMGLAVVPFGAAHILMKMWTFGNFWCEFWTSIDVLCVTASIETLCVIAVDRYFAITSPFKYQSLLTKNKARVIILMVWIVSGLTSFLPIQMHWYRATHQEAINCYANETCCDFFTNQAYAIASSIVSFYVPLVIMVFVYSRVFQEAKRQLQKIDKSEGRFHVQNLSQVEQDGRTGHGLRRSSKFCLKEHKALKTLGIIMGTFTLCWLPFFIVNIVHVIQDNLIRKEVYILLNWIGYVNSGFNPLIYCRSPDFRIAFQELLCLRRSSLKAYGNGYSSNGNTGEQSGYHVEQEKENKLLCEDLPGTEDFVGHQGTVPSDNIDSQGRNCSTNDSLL
HNF4A DNA FP: change in binding of human HNF4A to DNA, primary screen, biochemical, fluorescence polarization, FITC-DNA | Hepatocyte nuclear factor 4-alpha (Homo sapiens), P41235 | 1 h | activity change, % at 10 µM | 0.3% of 360,000 active | AID 1224865, 2016; in the data active = activity change above about 30%, passing the limit was not always enough;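 note: controls were the assay level and a saturating level of protein; the project sought stronger binding though the title names inhibitors; some compounds called inactive have numbers as strong as hits; positive values seem to mean higher polarization but the record does not say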
LANA-H2B inh: blockers of LANA interaction with H2A/H2B – biochemical, FP readout, HTS, primary screen. 0.6% of 320,000 active. inhibition, % (concentration not given with the values). cell-free LANA-H2A/H2B peptide, fluorescence polarization; in the data active = inhibition mostly above about 10%, no sharp cut-off; inactive = mostly below about 6.7%;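 note: stock transfer was 7.5 nL into about 10 µL; 0% = median of vehicle wells and 100% = median of positive control wells; one replicate is shown; the record names a cut of 25% in any replicate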
UCH37 DUB inh: inhibitors of human UCH37 deubiquitinase, primary screen, biochemical, Ub-AMC cleavage, fluorescence. AID 588478, 2011. purified proteasome/UCH37. Ubiquitin carboxyl-terminal hydrolase isozyme L5 (Homo sapiens), Q9Y5K5. 0.33% of 330,000 active. inhibition, % (concentration not given with the values);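 active = mean of two replicates above 20%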;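 note: 0% = compound-free wells with enzyme and 100% = wells lacking proteasome; stock transfer was 100 nL into about 20 µL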
Target sequence (Q9Y5K5 whole entry, looked up): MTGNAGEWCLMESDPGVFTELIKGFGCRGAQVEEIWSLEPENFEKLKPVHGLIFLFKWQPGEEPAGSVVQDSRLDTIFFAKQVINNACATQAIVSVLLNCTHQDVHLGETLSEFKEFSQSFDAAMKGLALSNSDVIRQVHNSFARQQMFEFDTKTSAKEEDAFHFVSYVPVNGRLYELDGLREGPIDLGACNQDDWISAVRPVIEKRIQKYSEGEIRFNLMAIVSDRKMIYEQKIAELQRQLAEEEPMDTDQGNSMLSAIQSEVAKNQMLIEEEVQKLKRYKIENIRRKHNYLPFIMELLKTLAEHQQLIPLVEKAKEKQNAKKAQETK
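Signal – fluorescence, ex 355 nm, em 460 nm · System – Proteasome-bound UCH37 · Input – 0.15 nM proteasome as dispensed · Timing – 30 min preincubation with enzyme, 25 min cleavage at room temperature · Read-out basis – percent inhibition of cleavage signal versus uninhibited and no-proteasome wells · Medium – Tris-HCl pH 7.4 with ATP-MgCl2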
Vif A3G: inhibitors of Vif binding to APOBEC3G peptide, primary screen, biochemical, TR-FRET, GST-Vif 1-94, biotin-A3G peptide, dose response retest (AID 1117319); Virion infectivity factor (Human immunodeficiency virus type 1 group M subtype B (isolate …; TR-FRET GST-Vif / biotin-A3G peptide binding; higher % means a stronger effect; test concentration not given here; strong numbers were not always called active; inhibition, %; hits with a dose series show IC50 in µM; 0.57% of 260,000 active;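 active = above the screen mean plus three standard deviations and confirmed in dose response; inconclusive = results disagree or hit not tested in dose response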;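 note: Vif residues 1-94 fused to GST binding biotinylated APOBEC3G peptide 110-148; 0% = full assay without inhibitor and 100% = GST in place of GST-Vif; retest series ran down from 100 µM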
A1 inh: caspase 3/7 activation in MEF A1-2A-BIM cells, primary screen, A1 inhibitor project, cell-based, luminescence, HTS; Caspase-Glo 3/7 luminescence, 3 h; percent of clofoctol response, vehicle zero; caspase activation, % (no concentration beside the values); AID 2462, 2010; 0.066% of 330,000 active;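 active = over half of replicate activation scores above 10%, or exactly half above 10 with the replicate mean above 10; inconclusive = replicate mean below 10 yet half the replicates above 10; inactive = over half of replicates below 10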;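 note: wells of about 30 µL received 50 nL stock; many hits fall short of the cut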
Ecoli growth: E. coli growth inhibition, primary screen, OD600; Escherichia coli growth, 23 h; stronger effect = lower value; OD600 absorbance (concentration not given with the values); 0.21% of 330,000 active; AID 1053175, 2014;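 active = OD600 absorbance below the run mean of sample wells minus 3.6 SD, in any replicate, cut at about 0.56 in these data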;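 note: stock transfer was 300 nL into about 60 µL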
* = called active by the depositor; i = inactive; u = inconclusive; x = no result given; & = joins results of further samples.

SMILES	B2AR ag	HNF4A DNA FP	LANA-H2B inh	UCH37 DUB inh	Vif A3G	A1 inh	Ecoli growth
Cc1ccc(O)c(C(=O)c2cc(C#N)c(=O)n(Cc3ccccc3)c2)c1	-3	7.2	0.7	2.6	3%	-0.6	0.68
CN=c1scc(-c2cc(OC)ccc2OC)n1/N=C/c1c(C)[nH]c2ccccc12	17	13	-3.8	x	x	-0.1	x
CC(C)OCCCNC(=O)CN1CCN(Cc2ccccc2Cl)C1=O	3	0.0	-0.8	2.8	4%	0.0	0.75
COc1ccc(CNc2nccs2)cc1	-9	-1.8	-4.0	1.1	0%	1.5	0.64
Cc1nc2ccc(S(=O)(=O)NCC(=O)N3CCCCC3)cc2s1	-3	4.8	-1.2	2.5	-7%	0.3	0.72
CN(N)c1nc2ccccc2nc1C(F)(F)F	-1	2.8	-3.8	5.6	3%	-0.3	0.68
CCN(CC)CCN1C(=O)c2ccccc2NC1c1cc(OC)c(OC)c(OC)c1 (stereo not drawn)	8	0.8	-2.6	i	1%	0.2	0.64
CCOc1ccccc1-n1nnnc1SCC(=O)O	-1	-4.2	1.8	-0.3	11%	0.8	0.72
COc1ccc(OC)c(N(CC(=O)NCc2ccccc2)S(=O)(=O)c2ccc(OC)c(OC)c2)c1	-1	4.3	41*	4.4	5%	-0.4	0.71
O=C(Nc1nccs1)c1cc(Cl)ccc1[N+](=O)[O-]	-3	1.3	0.0	3.2	x	0.1	0.65
CC(Cn1cncn1)NC(=O)c1cc(COc2cccc(C(F)(F)F)c2)on1 (stereo not drawn)	12	5.5	7.0	2.2	3%	-0.4	0.72
c1ccc(NC(=NCc2ccco2)c2ccccc2)cc1	-6	-1.8	-2.2	-1.4	12%	0.8	0.66
O=C(Nc1ccc(Cl)c(Cl)c1)N1CCCCCC1	-2	3.3	-1.1	3.9	-2%	0.2	0.71
CN1/C(=C/C(=O)C2CCC2)Sc2ccccc21	-10	-1.4	-7.9	16	-3%	-6.2	0.69
Cc1ccc(CCNS(=O)(=O)c2cc3c(cc2C)n(C)c(=O)c(=O)n3C)cc1	-5	0.6	x	-2.5	-4%	x	0.73
COc1cc(Br)cc(-c2nc3c(c(=O)[nH]c(=O)n3Cc3ccccc3)n2C)c1O	3	-7.2	2.5	3.8	4%	0.6	0.67
CCOc1cc(C2C(C(=O)c3ccco3)=C(O)C(=O)N2CC2CCCO2)ccc1O (stereo not drawn)	3	-0.1	-4.1	11	x	0.6	0.7
Cc1noc(C(=O)NC2CCCCC2)c1Cl	-12	0.0	6.7	6.1	-2%	-0.2	0.68
Cc1ccc(CN(Cc2cccnc2)C(=O)CN2C(=O)COc3ccccc32)o1	-9	-0.5	0.8	-0.8	1%	-0.8	0.65
COc1ccc(C(=O)NC(=S)Nc2ccc(N3CCCC3)cc2)cc1OC	4	2.4	0.1	2.8	20%	-0.8	0.72
Cc1ccc(NC(=S)N(CCCN2CCN(C)CC2)Cc2cccs2)cc1	-3	-3.3	-1.4	1.1	-1%	-1.4	0.73
COc1ccc(/C=C2\SC(=S)N(CCC(=O)Nc3ccc(C(=O)O)cc3)C2=O)cc1	9	-1.4	-2.6	10	x	-1.0	0.71
O=C(CN(Cc1ccc2c(c1)OCO2)C(=O)CNS(=O)(=O)c1ccccc1)NCC1CCCO1 (stereo not drawn)	-3	0.2	1.5	0.5	4%&-3%	-0.7	0.77
Cc1cccc(Nc2n[nH]c(=S)s2)c1C	7	-3.9	-11	4.8	-1%	0.1	0.69
CC1CC(C)(C)CC2(C1)NC(=O)N(CC(=O)OCc1ccc(Br)cc1)C2=O (stereo not drawn)	9	-0.6	1.2	0.6	x	-0.2	0.71
CCN(C(=O)c1cc2c(=O)[nH]c3ccc(C)cc3c2s1)c1ccc(OC)cc1	6	0.9	-3.0	-1.2	17%	0.8	0.65
CC(=O)Nc1ccc(C#Cc2ccc(NC(C)=O)cc2)cc1	-10	4.5	0.3	-2.5	0%	-0.3	0.66
Cc1ccc(NC(=O)Cn2c(=O)c3cccn3c3ccccc32)c(C)c1	-8	-0.2	-3.8	-4.1	-9%	-1.2	0.67
Cc1cc(C(=O)NC2Cc3ccccc3C2)c(C)o1	-3	6.0	-6.7	0.8	6%	1.1	0.67
COc1cccc(C(=O)NCc2ccc3c(c2)OCO3)c1OC	-1	1.0	3.2	0.3	x	1.2	0.63
Cc1ccc(C)c2sc(NC(=O)c3ccc(N4C(=O)CCC4=O)cc3)nc12	5	-3.2	1.6	-4.3	-136%	-0.4	0.8
COc1cccc(N(CC(=O)N2CCN(C)CC2)S(=O)(=O)c2ccc(C)cc2)c1	-20	-1.2	-69	1.9	-5%	0.4	0.72
COCc1cc(=O)[nH]c(/N=C(\N)Nc2ccc(C)cc2C)n1	1	0.9	-6.4	x	-6%	1.6	x
Cc1ccccc1NC(=O)CCC(=O)N/N=C/c1ccncc1	-2	1.1	5.3	x	x	1.1	x
Cc1ccc(/C([O-])=C(/C(=S)NCc2ccc3c(c2)OCO3)[n+]2ccc(N(C)C)cc2)c(C)c1	4	-0.4	2.7	2.9	-2%	-1.0	0.67
O=C(CSc1nc2ccccc2o1)Nc1ccccc1N1CCOCC1	-6	7.4	3.5	0.9	4%	-0.2	0.76
COc1ccc(C(C(=O)NCCC(C)C)N(CCN2CCOCC2)C(=O)Cn2nnc3ccccc32)c(OC)c1 (stereo not drawn)	-7	0.1	-2.5	5.5	-3%	-0.7	0.67
CCOC(=O)c1cnc2ccccc2c1NCCc1ccc(OC)c(OC)c1	-4	4.6	-8.0	-5.1	-5%	-0.2	0.74
COc1ccc(NS(=O)(=O)c2cccc(C(=O)N/N=C/c3ccc(O)cc3)c2)cc1	-2	2.3	0.4	x	-1%	1.2	x
CCOC(=O)N1CCN(c2ccc(C(=O)CC)cc2F)CC1	5	-0.7	1.1	-1.7	-2%	0.7	0.76

Ordered by value in Vif A3G (largest number first): some entries from above.
mol	Vif A3G
CC(=O)Nc1ccc(C#Cc2ccc(NC(C)=O)cc2)cc1	0%
Cc1ccc(/C([O-])=C(/C(=S)NCc2ccc3c(c2)OCO3)[n+]2ccc(N(C)C)cc2)c(C)c1	-2%
COc1cccc(N(CC(=O)N2CCN(C)CC2)S(=O)(=O)c2ccc(C)cc2)c1	-5%

(continued)
SMILES	B2AR ag	HNF4A DNA FP	LANA-H2B inh	UCH37 DUB inh	Vif A3G	A1 inh	Ecoli growth
COc1ccccc1Nc1nnc(SCC2CCCCO2)s1 (stereo not drawn)	-5	1.6	-1.0	2.7	x	-7.5	0.69
CC(C)(CNc1ccc([N+](=O)[O-])cc1C#N)N1CCOCC1	-5	1.7	2.2	3.1	12%	1.0	0.71
Cn1c(N)c(C(=O)COC(=O)Cc2ccc(Cl)c(Cl)c2)c(=O)n(C)c1=O	-2	0.1	0.8	0.6	x	-0.3	0.68
O=c1[nH]c2ccccc2cc1CN(Cc1cccnc1)S(=O)(=O)c1ccc([N+](=O)[O-])cc1	-18	3.4	4.6	5.3	-1%	-0.2	0.72
CS(=O)(=O)N1CCC(Oc2ccccc2C(=O)NCCCc2cccnc2)CC1	-5	-0.2	0.1	0.8	x	-1.8	0.64
COc1ccc(C(C)=O)cc1COc1ncnc2ccccc12	-11	0.4	-0.7	0.8	-5%	-0.3	0.69
CCOc1ccc(N(CC(=O)Nc2cccnc2)S(C)(=O)=O)cc1	-2	-3.1	2.6	1.4	7%	0.4	0.69
O=C(NCC(c1cccs1)N1CCOCC1)c1cccnc1 (stereo not drawn)	-2	6.0	-0.1	1.8	x	1.8	0.69
C/C(CC(=O)Nc1ccc2c(c1)OCO2)=N\NC(=O)C(c1ccccc1)c1ccccc1	2	-0.4	-1.7	x	x	-0.5	x
CS(=O)(=O)NCc1ccc(C(=O)NCc2ccccc2)cc1	-4	-0.4	-0.7	1.2	1%	-0.7	0.66
CN(C)c1ccc(C(=S)N2CCNCC2)cc1	8	2.6	4.8	1.2	11%	0.5	0.69
C[C@@H]1CN(C(=O)c2nc3ccc(Cl)cn3c2CN(C)CCc2cnn(C)c2)C[C@H](C)O1	0	-2.8	-5.1	-2.4	x	-0.7	0.7
CCOC(=O)CC/C(C)=N\N=C1\SC(CC(=O)O)C(=O)N1c1ccccc1 (stereo not drawn)	-9	0.8	12	x	3%	0.4	x
Cc1ccc(C(=O)CCS(=O)(=O)c2ccc(Cl)cc2)cc1	40	-0.3	5.4	1.2	x	0.1	0.67
CC(C)C(=O)Nc1ccccc1C(=O)N/N=C/c1ccc([N+](=O)[O-])cc1	4	-2.7	-3.5	x	7%	-0.3	x
Cn1nnc(NC(=S)NC(=O)c2cc3ccccc3o2)n1	2	3.0	0.4	3.6	6%	0.3	0.67
COc1ccccc1N1CCN(Cc2nc(N)nc(Nc3ccc(C)c(Cl)c3)n2)CC1	10	-0.1	3.7	3.1	10%	1.5	0.66
CC(C)C(C(=O)NC1CCCCC1)N(CC1CCCO1)C(=O)CNS(=O)(=O)c1ccc(F)cc1 (stereo not drawn)	0	-1.2	-0.6	1.8	2%&-5%	1.1	0.76
O=C(O)CC(c1cccc([N+](=O)[O-])c1)N1Cc2ccccc2C1=O (stereo not drawn)	8	5.0	-2.8	6.0	x	-0.7	0.72
C=CCn1c(C)c(/C=C/c2cc[n+](C)cc2)c2ccccc21	i	181	-220	x	x	-0.1	x

Rewritten bar-delimited: 2 of the compounds above.
SMILES | B2AR ag | HNF4A DNA FP | LANA-H2B inh | UCH37 DUB inh | Vif A3G | A1 inh | Ecoli growth
O=c1[nH]c2ccccc2cc1CN(Cc1cccnc1)S(=O)(=O)c1ccc([N+](=O)[O-])cc1 | -18 | 3.4 | 4.6 | 5.3 | -1% | -0.2 | 0.72
Cn1nnc(NC(=S)NC(=O)c2cc3ccccc3o2)n1 | 2 | 3.0 | 0.4 | 3.6 | 6% | 0.3 | 0.67

(list continues)
SMILES	B2AR ag	HNF4A DNA FP	LANA-H2B inh	UCH37 DUB inh	Vif A3G	A1 inh	Ecoli growth
CC(=O)Nc1ccc(S(=O)(=O)N2CCN(c3cc(C(F)(F)F)ccn3)CC2)cc1	-9	-3.9	1.7	-23	-1%	0.3	0.11*
Cc1ccc(NC(=O)c2cccnc2C(=O)Nc2ccc(C)cc2)cc1	8	3.1	-19	0.2	5%	0.2	0.71
CC(=O)OCC(=O)Nc1c(C)cccc1C	9	-0.2	-5.2	4.9	14%	-0.8	0.64
COc1ccc(S(=O)(=O)N2CCOCC2)cc1NC(=O)CSc1nnc2n1CCCCC2	3	1.0	-1.3	2.4	x	-0.5	0.7
CCc1ccc(NC(=O)CSc2nnc(CC)c(CC)n2)cc1	-6	4.0	-2.4	6.2	16%	0.7	0.66
O=C(CN1C(=O)COc2ccc(Cl)cc21)Nc1nccs1	0	0.1	-2.7	-0.2	x	-1.3	0.7
O=C(CSc1nnc(C2CC2)n1-c1ccccc1)N1CCNC1=O	-5	1.3	47*	1.5	2%	-0.6	0.67
Cc1cc(=O)[nH]c(SCCOc2ccc(OC(C)C)cc2)n1	3	-2.8	-3.4	-0.9	u	-8.4	0.69
O=CNCC(=O)NCCc1ccc(Cl)cc1	0	0.5	3.5	4.0	10%	-0.1	0.69
